# Source: PubChem BioAssay
# gsp ag = activates gsp, the McCune-Albright syndrome mutation. 340,000 compounds, 0.13% hits. gsp mutant cells, cAMP HTRF, 30 min; control for the full effect not named in the record. AID 624287. Potency, µM (highest dose often 76.9 µM), without a hit: at the top dose activation (cAMP increase), usual class: activators; active = well fitted activation curve with a large enough effect; inconclusive = small, poorly fitted or top-dose-only effect, or another doubt; inactive = no such curve, though single readings can be large or run the other way; cell line not stated here;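 also: phosphodiesterase inhibitor Ro 20-1724 added with compounds to block cAMP breakdown; potency is read from the fitted curve at half-maximal effect; nearly all actives have a fitted effect of over 60% in size; about a fifth of the inactives were tested at one dose only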
#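 Cells stably selected in G418 were plated at 2000/well, grown 16-24 hr, then given compounds in DMSO with the PDE inhibitor […] (300 uM solution added) for 30 min at 37C; cAMP was read by HTRF.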
# Menin MLL FP FL = inhibitors of human menin-MLL interaction, wild-type MLL peptide; Fluorescence polarization, fluorescein-MLL peptide displacement from menin; FP activity change, % at 61.4 µM; 290,000 tested, under 10 active; inconclusive = falling polarisation curve, or a change in total fluorescence; inactive = total fluorescence flat and polarisation flat or rising; no compound was filed as active; the % refers to the polarisation; negative = inhibition;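 also: % of control where 0% means no effect; inhibitors lower the polarisation; unlabelled MLL peptide was the positive control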
# gsp antag = antagonists of gsp mutant (McCune-Albright syndrome); 340,000 compounds, 0.4% hits; gsp-mutant cells, cAMP HTRF, 30 min; control for the full effect not named in the record; Potency, µM (doses to about 76.9 µM), without a hit: at the highest dose activity change, negative = inhibition, actives largely listed as inhibitors; active = falling curve of any shape with a large fitted effect; inconclusive = falling curve, mostly with a smaller effect; inactive = flat or rising curve; cell line not stated here;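 also: intracellular cAMP measured with PDE inhibitor Ro 20-1724 present during compound exposure; potency is read from the fitted curve at half-maximal effect; % is scaled to controls: 0 for no effect and ±100 for the full control effect; nearly all actives have a fitted effect of over 65% in size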
#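 G418-selected cells were plated in DMEM/10% FBS for 16-24 h at 37C, then treated with compounds plus the PDE inhibitor […] (300 uM solution added) for 30 min at 37C. Intracellular cAMP was measured by HTRF after 30 min lysis at room temperature.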
# TRPML1 blocker = blocks the human TRPML1 channel; Q9GZU1; TRPML1-inducible cells, Ca2+ dye fluorescence, FDSS; stronger effect = lower value; inhibition of EC80 agonist-evoked calcium signal; activity change, negative = inhibition, % (test concentration not listed); 390,000 compounds, 0.02% hits; AID 624415; in the data active means activity change below about -50%; inconclusive means about -30% to -50%; inactive means above about -30%;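 also: stimulus is agonist 54-4 at its EC80 concentration; % is scaled to controls: 0 for no effect and ±100 for the full control effect; compound concentration not given in the record; the text of the record puts the active cut at -80%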
# Target sequence (Q9GZU1 whole entry, looked up): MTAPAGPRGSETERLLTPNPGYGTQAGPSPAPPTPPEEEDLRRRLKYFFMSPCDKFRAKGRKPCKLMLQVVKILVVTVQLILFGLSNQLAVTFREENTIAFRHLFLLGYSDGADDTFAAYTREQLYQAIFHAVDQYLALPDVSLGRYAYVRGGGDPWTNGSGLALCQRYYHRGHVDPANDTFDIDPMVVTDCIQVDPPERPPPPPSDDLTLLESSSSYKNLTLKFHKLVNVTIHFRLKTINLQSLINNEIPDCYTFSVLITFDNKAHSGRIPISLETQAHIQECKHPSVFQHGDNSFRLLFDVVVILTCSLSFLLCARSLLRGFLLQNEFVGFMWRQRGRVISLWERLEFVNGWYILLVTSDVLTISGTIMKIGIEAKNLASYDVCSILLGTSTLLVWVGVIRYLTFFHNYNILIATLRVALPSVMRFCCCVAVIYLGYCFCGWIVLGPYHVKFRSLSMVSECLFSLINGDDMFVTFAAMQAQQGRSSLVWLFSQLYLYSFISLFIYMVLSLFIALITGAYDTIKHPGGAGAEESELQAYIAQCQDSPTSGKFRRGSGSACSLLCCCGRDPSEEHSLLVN
#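 TRPML1-DL cells, Tet-induced overnight (~16 h, 37 °C) at 1,500 cells/well, were loaded with Ca8 no-wash dye plus quencher for 45-90 min at room temperature. Compounds were pinned during FDSS kinetic reading; agonist 54-4 at EC80 (4 uM final) then added.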
# ClpP mod = qHTS Assay for Activators of ClpP | purified B. subtilis ClpP, FRET peptide cleavage, 20 min | AID 651965, 2013 | ATP-dependent Clp protease proteolytic subunit (Bacillus subtilis (strain 168)), P80244 | Potency, µM (top dose mostly 57.5 µM), inactives show at the highest dose activity change, negative = active | 340,000 compounds, 1.9% hits; active = well fitted falling curve with a large enough effect; inconclusive = small, poorly fitted or top-dose-only effect; inactive = no such curve, though single readings can be large or run the other way; also: potency is read from the fitted curve at half-maximal effect; the source files actives as falling curves though it sought activators and does not explain the sign; nearly all actives have a fitted effect of over 65% in size; many hits overshoot -100%
# Target sequence (P80244 whole entry, looked up): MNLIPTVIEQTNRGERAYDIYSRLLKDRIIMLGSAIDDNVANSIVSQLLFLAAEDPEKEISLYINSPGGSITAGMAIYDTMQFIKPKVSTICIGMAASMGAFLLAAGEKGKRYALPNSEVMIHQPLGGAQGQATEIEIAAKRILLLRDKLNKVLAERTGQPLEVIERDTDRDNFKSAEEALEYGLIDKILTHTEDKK
#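 Purified B. subtilis ClpP, 10 microg/mL final in Tris/HCl pH8 with KCl, BSA, glycerol and Tween-20, cleaved an Abz/nitrotyrosine-quenched decapeptide. Fluorescence (ex 320, em 430) was read at 0 and 20 min at room temperature. Delta was normalized to 5.8 microM ADEP and DMSO/no-enzyme controls.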
# TRPML1 agonist = human mucolipin-1 channel agonism; Q9GZU1; TRPML1-expressing cells, Ca2+ dye fluorescence, FDSS; host cell line not named in the record; reference of the full effect not given here; activation, % (concentration not given with the values); 410,000 compounds, 0.12% hits; AID 624414; in the data active = activation above about 50%; inconclusive = about 30% to 50%; inactive = below about 30%; also: 0% is about no effect; the text of the record puts the active cut at 80%
#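 Kinetic FDSS Ca2+ read in Tet-induced TRPML1-DL cells (ABD Ca8 dye plus quencher, 45-90 min RT loading): baseline, then compound, then 110 s agonist window; EC80 agonist 54-4 at 4uM final added afterwards for a 110 s antagonist window.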
# * hit, by the source's call; ? = inconclusive; . = not tested or not shown; & = joins results of further samples; [ ] = dose if it differs, or a comment.
SMILES,gsp ag,Menin MLL FP FL,gsp antag,TRPML1 blocker,ClpP mod,TRPML1 agonist
C=CCOc1ccc(C2/C(=C(\O)c3c(C)[nH]c(C(=O)OC)c3C)C(=O)C(=O)N2CCN(C)C)cc1 (centres undefined),?,-0.5,6%,5,-1.3%,-0.3
COc1ccc(OC)c(NC(=O)CN2CCC(NC(=O)c3ccccc3C)CC2)c1,-11%,0.3,-10%,0,-0.6%,0.4
S=c1[nH]nc(-c2cccc(Cl)c2)n1/N=C/c1ccc(-c2ccccc2Br)o1,9%,-1.3,-6%,-10,3.3%,-1.0
Cc1cc(Oc2ccc(=O)n(C)n2)nc(SCc2ccccc2)n1,7%,-0.7,8%,-3,-1.3%,1.5
CC(=Nc1cccc(O)c1)c1sc2ccccc2c1O,-67%[inhibitor],?,-6%,-14,-1.8%,7.9
COC(=O)C12OCC34C(CC5C(C)=C(O)C(=O)CC5(C)C3C(O)C1O)OC(=O)C(OC(=O)C=C(C)C)C24 (centres undefined),28%,.,9%,-10,1.0%,0.3
CN(C)CCCSc1nc2ccccc2s1,?,-3.8,6%,-9,-1.5%,0.4
Cn1cc(CN2CCC(O)CC2)c(-c2ccc(Oc3ccccc3)cc2)n1,-55%[inhibitor],-5.3,-1%,56,-2.7%,0.7
CCN(C(=O)CC(C)C)c1nnc(Cn2nnc3ccccc32)s1,-3%[15.4 µM],0.3,-7%,-11,.,-0.1
O=C(NC(=S)Nc1ccc(N2CCOCC2)c(Cl)c1)C(c1ccccc1)c1ccccc1,-79%[inhibitor],1.9,-2%,31,-1.7%,0.3
CCC1(C)NC(=O)N(CC(=O)Nc2sc3c(c2C(=O)OC)CCCCC3)C1=O (centres undefined),-1%[15.4 µM],0.5,-18%,38,.,4.1
CCOC(=O)C1=C(COC(=O)CCNS(=O)(=O)c2ccc(C)c(C)c2)NC(=O)NC1C (centres undefined),-13%,.,-7%,17,-1.2%,0.5

# Four of these compounds, reformatted.
# Fields – gsp ag | Menin MLL FP FL | gsp antag | TRPML1 blocker | ClpP mod | TRPML1 agonist
- COC(=O)C12OCC34C(CC5C(C)=C(O)C(=O)CC5(C)C3C(O)C1O)OC(=O)C(OC(=O)C=C(C)C)C24 (centres undefined)
  28% | . | 9% | -10 | 1.0% | 0.3
- C=CCOc1ccc(C2/C(=C(\O)c3c(C)[nH]c(C(=O)OC)c3C)C(=O)C(=O)N2CCN(C)C)cc1 (centres undefined)
  ? | -0.5 | 6% | 5 | -1.3% | -0.3
- CCC1(C)NC(=O)N(CC(=O)Nc2sc3c(c2C(=O)OC)CCCCC3)C1=O (centres undefined)
  -1%[15.4 µM] | 0.5 | -18% | 38 | . | 4.1
- Cc1cc(Oc2ccc(=O)n(C)n2)nc(SCc2ccccc2)n1
  7% | -0.7 | 8% | -3 | -1.3% | 1.5

# More structures
SMILES,gsp ag,Menin MLL FP FL,gsp antag,TRPML1 blocker,ClpP mod,TRPML1 agonist
CC(C)C(=O)NC(=S)Nc1ccccc1C(=O)NC1CCCCC1,-6%,0.9,10%,0,-1.8%,1.9
CCCC(=O)N1CCC1(C)C(=O)Nc1cccc(OC(C)C)c1 (centres undefined),.,.,.,50,4.5%,-0.2
CCn1c(SCC(=O)Nc2ccc(NC(=O)c3cccs3)cc2)nnc1-c1cccnc1,19%,-0.6,2%,-7,0.4%,-0.3
O=C(Cc1ncc(C(F)(F)F)cc1Cl)NCc1cccnc1,?,?,12%,-4,-0.8%,0.6
CCOC(=O)c1nc(Nc2ccccc2C)c2ccccc2n1,31%,5.2,-6%,-8&-5,0.4%,0.8&3.3
CCOc1ccc(C(=O)NC2CCN(C(=S)Nc3ccccc3C)CC2)cc1,-11%,3.6,6%,-3,0.7%,3.7
Cc1sc(N)c(C(=O)c2ccccc2)c1C,-47%[15.4 µM],1.2,1%,-7,.,0.0
COc1ccc(C2(CNC(=O)Cc3ccc(OC)c(OC)c3)CCOCC2)cc1,14%,0.1,-3%,-9,1.4%,-0.5
Cc1ccc(/C(N)=N/OC(=O)CCCc2ccccc2)cc1,-15%,.,7%,-10,-1.4%,-0.9
COc1cccc(-n2cc(C(=O)Nc3cccc(C(F)(F)F)c3)c3ccccc3c2=O)c1,.,.,.,10,?,1.9
Cc1[nH]c2ccccc2c1/C=N\NC(=O)c1ccco1,-24%,.,-3%,-12,-3.8%,0.3
CCOc1ccccc1-c1cc(C(=O)N/N=C(\C)c2cccnc2)c2ccccc2n1,9%,.,-1%,3,0.9%,0.5
COc1ccc(OCC(=O)N/N=C/c2ccc(OC)c(OC)c2C(=O)O)cc1,14%,2.4,12%,-6,-2.7%,0.0
O=C(COC(=O)c1cccs1)Nc1cccc(S(=O)(=O)N2CCOCC2)c1,2%,-0.6,7%,7,-1.9%,-0.2
CCOc1ccc(C)cc1S(=O)(=O)Nc1ccc(Cl)cn1,6%,0.7,13%,-7,-6.1%,-0.1
O=C(Nc1ccc(OC(F)(F)F)cc1)C(Cc1ccccc1)NS(=O)(=O)c1cccc2nsnc12 (centres undefined),.,.,.,15,63%,0.8
COc1ccc(Br)cc1CNC(=O)CSc1cc(=O)n(C)c2ccccc12,.,.,.,-3,-1.6%,-0.3
Cc1ccc(-n2nc(C)c3c(C)c(CCC(=O)NCCCOC(C)C)c(C)nc32)cc1,2%,-0.3,-22%,.,3.5%,.
CCn1cc(CNC(=O)CCc2nnc(CCC3CCCCC3)o2)cn1,0%,3.1,8%,4,-1.3%,0.3
CCSC(C)CC1C/C(=N/O)c2c(CC)noc2C1 (centres undefined),-9%,3.7,-20%,37,-0.8%,2.5
CCOCCCNC(=O)c1ccc2c(c1)OCO2,1%,0.7,7%,-6,-5.9%,0.5
O=C(CSc1nc2ccccc2[nH]1)Nc1ccc(F)cc1,?,3.7,-9%,-18,1.7%,1.7
COc1cccc(C(=O)N2CCSC2=S)c1,-4%,3.8,10%,-3,2.8%,-0.7
CCn1c(CSc2nc(C)cc(C)n2)nnc1SCC(=O)Nc1ccccc1,2%,4.5,-3%,13,-2.2%,-0.4
O=C(Cc1ccccc1)Nc1nnc(-c2cccc([N+](=O)[O-])c2)s1,8%,1.8,-6%,-15,32µM*,0.4
O=C(CSc1nnc(-c2cccnc2)n1Cc1ccccc1)N1CCOCC1,13%,-0.8,13%,67,-0.7%,0.3
CCOC(=O)CC(NC(=O)CCc1c(C)nc2nc(C)nn2c1C)c1ccc(OC(C)C)cc1 (centres undefined),?,3.5,8%,-4,.,-0.4
CCOC(=O)C1=C(CN2CCN(C(=O)c3ccco3)CC2)NC(=O)NC1c1ccc(C)cc1 (centres undefined),17%,.,0%,0,-2.0%,0.3
COc1ccc(C)cc1NC(=O)NC(C)c1ccncc1 (centres undefined),-4%,-2.2,-14%,-3,-21%,0.6
Cc1ccccc1CNCc1ccc2c(c1)OCO2,-7%,1.1,10%,-9,-2.5%,-0.3
Nc1ccc(S(=O)(=O)N2CCC(Cc3ccccc3)CC2)cc1,13%,3.3,4%,-13,-0.5%,0.6
O=C(c1ccc(Br)o1)N1N=C(c2ccc(Cl)cc2)CC1c1ccco1 (centres undefined),15%[15.4 µM],.,?,12,-14%,0.1
O=C(O)c1cc(S(=O)(=O)N2CC3CC3C2C(=O)O)c(Cl)cc1Cl (centres undefined),-4%,.,7%,16,-1.1%,0.2
CC(C)(C)C(=O)CSc1nc2ccsc2c(=O)n1Cc1ccccc1Cl,.,.,.,66,-7.8%,3.2
CC#CC(=O)N1CCC(CCC(=O)N(C)Cc2ccccc2)CC1,-4%,-1.0,8%,-4,-1.0%,0.7
O=S1(=O)CC(O)C(Nc2ccccc2)C1 (centres undefined),4%,1.5,8%,-11,-2.5%,1.2
O=C(CSc1nncc2ccccc12)Nc1cccc(O)c1,-54%[15.4 µM],1.5,-9%,1,.,-0.1
FC(F)(F)c1ccc(NC2=NCCC2)cc1,14%,0.2,6%,-17,-2.6%,1.7
O=C(Cn1c(=O)oc2ccccc21)Nc1nc(-c2ccc(Br)cc2)cs1,6%,3.3,5%,28,-2.4%,0.4
COc1ccc(C(C)=NNc2ccc([N+](=O)[O-])cc2S(=O)(=O)Nc2ccccc2C(=O)O)c(OC)c1,19%,.,?,0,.,-0.9
O=C(COc1ccccc1C(=O)NCc1ccccn1)Nc1ccc(Br)cc1,?,-3.0,-19%,1,2.4%,1.2
CCOC(=O)c1c(NC(C)=O)sc2c1C1CCN2CC1,-23%,.,-3%,0,-25%,-1.1
CC1(C)CC(=O)C(=C2SCCCS2)C(=O)C1,?,0.3,2%,-10,-1.8%,0.3
CCn1c(CNc2ccccc2Cl)nnc1SCC(=O)NCc1ccccc1,2%,0.9,-6%,-5,0.9%,0.0
O=C1CCN(Cc2nc(-c3ccc(Cl)cc3)no2)CCN1,-48%[inhibitor],0.8,18%,16,.,0.2
CCOC(=O)[C@H]1[C@H]2COc3ccccc3[C@@H]2N2C(=O)c3cc(OC)ccc3NC(=O)[C@@]12C,-26%,.,-1%,-2,-26%,0.3
O=S1(=O)C2CC3C=CC2(O3)C(OCc2ccc(Cl)c(Cl)c2)C(Cc2ccccc2)N1Cc1ccc(Cl)c(Cl)c1 (centres undefined),.,1.1,.,20,.,0.5
O=C1[C@H]2[C@@H](c3ccc(F)cc3)N3C(=O)N(c4cccc(F)c4)C(=O)[C@@]3(Cc3ccccc3)[C@H]2C(=O)N1C1CCCCC1,-13%,.,-15%,-8,1.6%,0.0
COc1ccc(-c2nc(SCC(=O)NCCc3ccccc3)n[nH]2)cc1,.,.,.,1,-0.8%,2.3
CC(C)(C)NC(=O)CN(C(=O)C1CSC(=O)C1)c1ccc2c(c1)OCCO2 (centres undefined),18%,4.9,-4%,-19,-0.7%,0.0
CC1CN(C(=O)c2cc(COc3c(F)cccc3F)on2)CCN1C (centres undefined),-2%,.,7%,-10,-4.1%,0.1
COc1ccc(-c2cc(C(F)(F)F)nc(SCC(=O)N3CCCCC3)n2)cc1OC,.,.,.,1,4.0%,0.3
COc1ccc(OCc2nnc(SCC(N)=O)n2N)cc1,-1%,1.8,-5%,9,0.7%,4.8
CNC(=O)Nc1ccccc1C(=O)NCc1ccccc1,7%,6.7,3%,-11,-9.2%,0.7
CNS(=O)(=O)c1cccc(C(=O)Nc2cccc(Cl)c2)c1,-31%[inhibitor],-1.0,-33%,-5,-2.9%,0.7
CSc1ccccc1NC(=O)COC(=O)Cn1cc(C(F)(F)F)ccc1=O,6%,.,-5%,21,0.6%,0.0
CC(C)(C)C(=O)NC(=S)Nc1ccc(Cl)c(C(=O)O)c1,35%,1.3,-20%,19,.,1.3
O=C(c1cccs1)N1CCN(S(=O)(=O)c2ccc(F)cc2)CC1,-32%[inhibitor],-5.0,-1%,18,.,0.4

# This is a random part of the collection; any-hit rate near 2.1%.
